TRPV1 PAM – human TRPV1 potentiation | potentiation, % at 8.33 µM | Q8NER1 | 0.02% of 320,000 active | AID 540277 | TRPV1-expressing cells, Fluo-8 calcium influx, capsaicin EC20 potentiation; host cell line not named in the record; control for the full effect not named in the record; active means potentiation above 80%; inconclusive means 30% to 80%; inactive means below 30%; also: 0% is about no effect
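Cells expressing TRPV1 were dye-loaded with Fluo-8 and read kinetically: 10 s baseline, 3 min after compound (agonist portion), then 2 min after EC20 capsaicin (allosteric enhancer portion). Calcium-bound dye fluorescence at 480/520 nm.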
CtBP-E1A blk – inhibitors of CtBP/E1A interaction. 0.49% of 340,000 active. AlphaScreen GST-E1A/His-CtBP binding, 1536-well; stronger effect = lower value; control for the full effect not named in the record. activity change, % (no concentration beside the values). AID 651724; in the data active means activity change below about -65%; inconclusive means about -30% to -65%; inactive means above about -30%; also: % is scaled to controls: 0 for no effect and ±100 for the full control effect; compound concentration not given in the record
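Homogeneous bead-based format: GST-tagged E1A captured on glutathione donor beads, His-tagged CtBP on nickel acceptor beads; compounds precede bead addition by 2 h at 37 °C.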
D2 PAM – potentiates the human D2 dopamine receptor allosterically. P14416. DiscoveRx D2 beta-arrestin cells, luminescence, 90 min; 100% = 57 uM dopamine signal. potentiation, % (no concentration beside the values). 0.23% of 360,000 active. AID 624464; active = potentiation of 50% or more; inconclusive = 30% to 50%; inactive = 30% or less;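 also: compound concentration not given in the record; tested on top of an EC20 dose of dopamine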
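D2 cells co-treated with compound plus 50 nM dopamine (EC20) for 90 min at 37 deg C to detect potentiation. Beta-arrestin recruitment was read as enzyme-fragment luminescence after 1 h at ambient temperature. Full response was set by 57 uM dopamine.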
TRPML1 agonist – human mucolipin-1 channel agonism; Q9GZU1; TRPML1-expressing cells, Ca2+ dye fluorescence, FDSS; host cell line not named in the record; reference of the full effect not given here; activation, % (no concentration beside the values); 0.12% of 410,000 active; AID 624414; in the data active = activation above about 50%; inconclusive = about 30% to 50%; inactive = below about 30%; also: 0% is about no effect; the text of the record puts the active cut at 80%
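Cells: TRPML1-DL, 1X Tet inducer, ~16 h at 37 degrees C/5% CO2. Dye: ABD Ca8 no-wash + quencher, 45-90 min RT. Read: 10 s baseline, compound add, 110 s agonist phase; 54-4 EC80 (4uM final), 110 s antagonist phase.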
Six1-Eya2 inh – inhibitors of human Six1/Eya2 interaction. Q15475+O00167. AlphaScreen GST-Six1/His-Eya2 binding, biochemical; stronger effect = lower value; control for the full effect not named in the record. activity change, % (concentration not given with the values). 0.56% of 360,000 active. AID 651725; in the data active = activity change below about -65%; inconclusive = about -30% to -65%; inactive = above about -30%; also: % is scaled to controls: 0 for no effect and ±100 for the full control effect
Target sequence (O00167 whole entry, looked up): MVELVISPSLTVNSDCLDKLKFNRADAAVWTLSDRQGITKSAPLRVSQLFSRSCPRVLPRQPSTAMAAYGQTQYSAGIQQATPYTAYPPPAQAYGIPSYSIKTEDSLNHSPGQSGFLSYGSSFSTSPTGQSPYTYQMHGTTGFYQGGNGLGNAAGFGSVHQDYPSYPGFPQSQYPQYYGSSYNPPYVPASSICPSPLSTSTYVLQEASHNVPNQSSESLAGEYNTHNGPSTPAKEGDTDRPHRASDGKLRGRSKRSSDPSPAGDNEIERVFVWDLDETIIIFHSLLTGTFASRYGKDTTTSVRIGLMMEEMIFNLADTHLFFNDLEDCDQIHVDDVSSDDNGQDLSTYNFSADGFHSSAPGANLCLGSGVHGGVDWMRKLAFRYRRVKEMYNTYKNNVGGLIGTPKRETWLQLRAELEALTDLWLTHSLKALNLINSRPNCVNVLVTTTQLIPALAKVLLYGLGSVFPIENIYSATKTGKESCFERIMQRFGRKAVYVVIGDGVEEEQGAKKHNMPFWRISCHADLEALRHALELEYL
Target sequence (Q15475 whole entry, looked up): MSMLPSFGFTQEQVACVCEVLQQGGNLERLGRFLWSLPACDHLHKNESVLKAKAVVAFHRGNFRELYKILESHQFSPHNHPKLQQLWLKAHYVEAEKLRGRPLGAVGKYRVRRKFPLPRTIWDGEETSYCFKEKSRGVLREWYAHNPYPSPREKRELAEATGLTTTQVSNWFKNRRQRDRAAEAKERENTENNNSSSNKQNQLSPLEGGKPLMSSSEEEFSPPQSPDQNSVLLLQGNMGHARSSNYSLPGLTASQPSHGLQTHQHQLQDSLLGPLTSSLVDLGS
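GST-Six1 + His-Eya2 (5X stock: 250/500 nM); Tris pH 8.0, 300 mM NaCl, 0.05% BSA, 0.02% Tween 20; GSH donor/Ni acceptor beads; 1 h 37 °C dark; AlphaScreen readout.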
TRPML1 inh – blocks the human TRPML1 channel; activity change, negative = inhibition, % (concentration not given with the values); TRPML1-inducible cells, Ca2+ dye fluorescence, FDSS; stronger effect = lower value; inhibition of EC80 agonist-evoked calcium signal; AID 624415; 0.02% of 390,000 active; in the data active means activity change below about -50%; inconclusive means about -30% to -50%; inactive means above about -30%;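 also: stimulus is agonist 54-4 at its EC80 concentration; % is scaled to controls: 0 for no effect and ±100 for the full control effect; compound concentration not given in the record; the text of the record puts the active cut at -80%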
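Calcium fluorescence in TRPML1-DL cells induced overnight with Tet: a 110 s read after compound pin addition, then a 110 s antagonist read after challenge with 54-4 at 4 uM final (EC80).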
* marks the source's active call; other numbers are inactive results; ? = inconclusive; · = not tested or not shown; & = joins results of further samples. Not a hit list; 0.95% or so of the library scored in one or more.

SMILES	TRPV1 PAM	CtBP-E1A blk	D2 PAM	TRPML1 agonist	Six1-Eya2 inh	TRPML1 inh
COc1ccc(N2CCN(C(=O)c3cccc4nc(C)oc34)CC2)cc1	-3	3	-7	-0.8	1	-6
C#CCN(C[C@@H]1[C@@H](OC(=O)NCc2ccc(OC)c(OC)c2)[C@@H](OC(=O)NCc2ccc(OC)c(OC)c2)Cn2c(=O)ccc(=O)n21)S(=O)(=O)c1ccc(C)cc1	·	4	3	0.0	8	6
Cc1ccccc1OCCNC(=O)CSc1ccc(C(F)(F)F)cc1[N+](=O)[O-]	-11	-9	-11	-0.5	-10	-2
CC(C)CCNc1nc2c(cc1C#N)COC(C)(C)C2	12	7	-12	2.1	4	2
CCc1ccc(S(=O)(=O)Nc2ccc(Br)cn2)cc1	-3	-7	6	-0.2	-1	-6
O=C(NNC(=S)NCCCN1CCOCC1)c1ccncc1	-13	1	5	1.6	-1	-14
O=C(C[C@H]1C[C@H](C(=O)N2CCOCC2)[C@@]2(CCC3CCCC3)c3[nH]c4cc(-c5ccco5)ccc4c3CCN2C1=O)NCc1ccco1	·	-11	-4	2.9	-16	7
CCNC(=O)C1(C)CCCN1Cc1ccccc1Cl (stereo not given)	·	0	-9	0.0	3	-3
NC(=O)C1(N2CCCC2)CCN(Cc2ccccc2)CC1	·	-4	-4	0.6	9	24
CC(=O)c1ccc(NC(=O)C(C)Oc2ccc(N(C)S(=O)(=O)c3ccc(C)cc3)cc2)cc1 (stereo not given)	11	-5	-1	4.8	-1	22
O=C(Nc1nc2c(Cl)c(Cl)ccc2s1)C1CC1	-1	2	-4	0.4	-2	-7
COc1ncc(-c2ccc3c(c2)S(=O)(=O)c2cccc(C(=O)O)c2C3=O)cn1	0	·	-9	-0.4	8	-16
Cc1ccc(C)c(N2CCN(C(=O)CCCOc3cc(=O)n(C)c4ccccc34)CC2)c1	13	-19	-14	-0.5	-17	3
CCCCn1c(N)c(N2CCOCC2)c(=O)n(CC(=O)NC(C)c2ccccc2)c1=O (stereo not given)	-4	3	-6	-1.3	12	-8
COc1ccc(-c2cn3cccnc3n2)cc1Br	16	-21	?	-0.4	-24	-1
Cc1ccc(OCC(=O)N/N=C\c2ccncc2)c(C)c1	-16	·	-15	0.4	4	-7
CCN(CC)S(=O)(=O)c1ccc(NC(=O)C2CCCO2)cc1 (stereo not given)	4	0	-2	0.8	-4	-11
CC(C)=C(c1ccc(Cl)cc1)c1c(N)ncnc1N	·	-23	-11	0.2	7	12
COc1ccc(CNC(=O)c2cc3c(=O)[nH]c4ccccc4c3n2C)cc1	6	0	2	1.5	6	-7
C=CS(=O)(=O)N(Cc1ccccc1)[C@H](CO)CC(C)C	·	-1	-11	-0.6&-0.4	-2	33
Cc1cc(NCc2ccc(F)cc2Cl)n2nnnc2n1	2	-6	4	-1.2	-1	26
CC1(C(=O)NS(=O)(=O)c2ccccc2)CCN1C(=O)c1cccc2ccccc12 (stereo not given)	·	2	-5	-0.5	0	·
CCOc1ccc(Oc2c(C)oc3cc(O)ccc3c2=O)cc1	-8	7	-1	0.5	0	17
CN1CCN(S(=O)(=O)c2ccc(Sc3nc4ccccc4[nH]3)c3nsnc23)CC1	4	0	-28	1.6	-9	-20
CCN1CCN(C(=O)C(C)Sc2nnc3nc(C)cc(C)n23)CC1 (stereo not given)	16	-3	-5	-0.2	1	13

One compound at a time (already shown).
O=C(Nc1nc2c(Cl)c(Cl)ccc2s1)C1CC1 across the screens: TRPV1 PAM: -1; CtBP-E1A blk: 2; D2 PAM: -4; TRPML1 agonist: 0.4; Six1-Eya2 inh: -2; TRPML1 inh: -7
CCN1CCN(C(=O)C(C)Sc2nnc3nc(C)cc(C)n23)CC1 (stereo not given) across the screens: TRPV1 PAM: 16; CtBP-E1A blk: -3; D2 PAM: -5; TRPML1 agonist: -0.2; Six1-Eya2 inh: 1; TRPML1 inh: 13

(more compounds)
SMILES	TRPV1 PAM	CtBP-E1A blk	D2 PAM	TRPML1 agonist	Six1-Eya2 inh	TRPML1 inh
COCCCN(CCC#N)C(=O)c1c(-c2c(Cl)cccc2Cl)noc1C	2	9	-12	-0.2	10	15
NC1=Nc2cccc3cccc1c23	0	-1	-9	1.0	1	-15
Cc1nnn(C23C[C@@H]4C[C@@H](CC(C(=O)N5CCN(c6ccccc6)CC5)(C4)C2)C3)n1	-9	·	2	0.7	-3	23
Brc1ccc(/C=N/c2nc3ccccc3n2CCN2CCOCC2)cc1	4	-9	-30	0.5	8	-6
CC1(C)CC(=O)C(C=NCC(O)c2ccccc2)=C(O)C1 (stereo not given)	-20	6	4	0.0	2	3
CCOC(=O)N1CCN(CCC(=O)Nc2cc(OC)cc(OC)c2)CC1	7	-2	-14	-0.3	4	7
COc1ccccc1CNC(=O)c1cc(S(=O)(=O)N2CCCC2)cn1C	-47	2	2	-0.7	0	-12
O=C(NCc1cccnc1)C1CCCN(S(=O)(=O)c2ccc(Cl)cc2)C1 (stereo not given)	4	3	4	-0.7	7	8
CN(CC(=O)Nc1ccncc1)S(=O)(=O)c1ccc(Br)cc1	-16	-4	2	-0.2	-1	6
COc1cnc(-c2cccc(C(F)(F)F)c2)c(NC(=O)c2cc3ccccc3s2)n1	·	-23	4	2.1	-1	·
O=C(Nc1cccnc1)C1(c2ccccc2)CCCC1	-15	5	-9	0.7	5	-7
CCOC(=O)C(Sc1nn(C)c(=S)s1)C(C)=O (stereo not given)	10	7	-9	-0.8	-1	-10
CCOc1ccc(N(CC(=O)N/N=C(\C)c2cccc(NC(C)=O)c2)S(=O)(=O)c2ccccc2)cc1	21	-5	1	1.4	0	-15
COc1cc(OC)cc(C(=O)NC(C)c2ccc(Br)cc2)c1 (stereo not given)	-4	3	-6	0.0	6	0
CN1C(=O)CC(c2ccccc2)CC1=O	28	7	-4	-0.1	0	0
CCOC(=O)c1c(C)[nH]c(C(=O)OCC(=O)NCCc2ccc(OCC)c(OCC)c2)c1C	-2	5	-1	-0.1	-1	2
Cc1cc(C)c(NC(=O)c2ccc3c(c2)NC(=O)C(C)S3)c(C)c1 (stereo not given)	-13	0	2	1.4	3	4
Cc1ccc2nc(N3CCN(Cc4ccc(F)cc4)C3=O)c(C)cc2c1	-1	10	-27	-0.2	5	3
COc1ccc(C2=NOC(C(=O)Nc3cc(C)on3)C2)cc1OC (stereo not given)	19	·	-14	-0.2	-4	27
CC1CN(C2CCN(C(=O)COc3ccccc3)CC2)CC(C)O1 (stereo not given)	19	-1	-18	0.2	0	-10
COc1ccc2nc(NC(=O)c3ccc(F)cc3)sc2c1	2	0	0	0.6	4	0
COc1ccc(CNC(=O)C(C)Cc2ccccc2)cc1O (stereo not given)	13	4	-6	-0.6	5	5
CC(C)(C)OC(=O)NC(=NCCCc1cn(CC(=O)N2CCN(C(=O)OC(C)(C)C)CC2)nn1)NC(=O)OC(C)(C)C	-5	5	-3	1.2	-1	-10
CCOC(=O)C1=CNS(=O)(=O)NC1c1ccc(C[C@H](NC(=O)CNC(=O)CCc2ccccc2)C(N)=O)cc1 (stereo not given in full)	·	-4	·	-0.2	4	-12
COc1ccc(C(=O)N2CCN(S(=O)(=O)c3cc(Cl)ccc3OC)CC2)cc1	-13	3	-7	-0.9	-1	8

3 neighbouring records from above, quoted:
SMILES	TRPV1 PAM	CtBP-E1A blk	D2 PAM	TRPML1 agonist	Six1-Eya2 inh	TRPML1 inh
COCCCN(CCC#N)C(=O)c1c(-c2c(Cl)cccc2Cl)noc1C	2	9	-12	-0.2	10	15
NC1=Nc2cccc3cccc1c23	0	-1	-9	1.0	1	-15
Cc1nnn(C23C[C@@H]4C[C@@H](CC(C(=O)N5CCN(c6ccccc6)CC5)(C4)C2)C3)n1	-9	·	2	0.7	-3	23

Following part
SMILES	TRPV1 PAM	CtBP-E1A blk	D2 PAM	TRPML1 agonist	Six1-Eya2 inh	TRPML1 inh
COc1ccc(-n2c(=O)cc(N3CCN(c4ccccc4F)CC3)[nH]c2=O)cc1	-5	9	-6	1.3	1	21
C=CCN1C(=O)C2C3CC(=O)C(c4ccccc43)C2C1=O (stereo not given)	-5	7	1	0.7	-4	26
CC(=O)c1c(C)oc2ccc(NS(=O)(=O)c3ccc(O)c(C(=O)O)c3)cc12	-4	-8	-8	0.5	-7	15
O=C(CSc1nnc(-c2ccncc2)o1)Oc1ccccc1	5	0	8	0.8	5	28
CC(C)(O)C#Cc1ccc(C(=O)NCc2ccccc2F)cc1	-2	1	5	0.0	5	9
CC1CCN(CC(O)COc2cccc(F)c2)CC1 (stereo not given)	4	0	-8	0.4	3	-11
COCCN(C(=O)CSc1nnc(-c2cccc(F)c2)n1N)c1c(N)n(CC(C)C)c(=O)[nH]c1=O	-6	-6	0	-0.3	2	3
O=C(CN1C(=O)COCC1=O)N1CCOCC1	-2	11	-11	0.0	3	15
COc1ccccc1C(=O)Nc1ccc(N2CCN(C(C)=O)CC2)cc1	6	-1	-3	1.6	-1	-15
Cc1ccc(NC(=O)c2ccc(OCC3CCCO3)cc2)nc1 (stereo not given)	-2	3	?	-0.5	11	-6
COC(=O)CSC1=C(C#N)C(c2ccc3c(c2)OCO3)C2=C(CCCC2=O)N1 (stereo not given)	-6	1	1	-0.6	5	-18
Oc1cccc(-c2nnc(-c3cccc(O)c3)nn2)c1	·	4	-25	2.3	12	-4
CCN(CC)CCCC(C)Nc1nccc2c(Cl)cccc12 (stereo not given)	·	4	-22	0.7	7	-8
O=c1[nH]c(CN2CCN(c3ncccn3)CC2)nc2c(Br)cc(Br)cc12	6	-7	-2	0.1	-3	6
CC1CCCCN1C(=O)COC(=O)C1CCN(S(=O)(=O)c2c(Cl)cccc2Cl)CC1 (stereo not given)	-1	2	4	0.0	-2	-2
COc1ccc(NC(=O)C(c2ccc(C)cc2)N(C)C(=O)CNC(C)=O)cc1 (stereo not given)	-8	4	-4	0.2	0	-24
CC(=O)NCC(=O)OC(C)C(=O)Nc1ccc(C(C)=O)cc1 (stereo not given)	-9	-3	-3	5.2	0	12
CCCOC(=O)c1c(-c2ccc(OC)cc2)oc2ccc(-c3ccc(OC)nc3)cc12	-3	-21	-4	1.1	13	-5
CCn1c(C)nc2cc(-c3nnc(-c4c(-c5ccccc5)noc4C)o3)ccc21	4	-3	22	-1.4	-4	22
O=c1c(-c2ccc(O)cc2)coc2c(C3O[C@H](CO)[C@@H](O)[C@H](O)[C@H]3O)c(O)ccc12 (stereo not given in full)	14	0	-6	-0.3	6	17
Cc1ccccc1COc1ccc(-c2nn[nH]n2)cc1	2	4	-2	-0.4	0	-4
Clc1cccc(Cc2c(-c3ccccc3)nc3ccc(Cl)cn23)c1	·	2	-3	1.2	0	-7
O=C(OCCN1CCOCC1)c1ccc(Cl)cc1Cl	-3	·	-29	-0.3	0	-3
COc1cccc(OC)c1NC(=O)CN(C)S(=O)(=O)c1ccc2c(c1)OCCO2	4	1	-2	-0.5	5	-7
COc1cccc2c1OCC(C(=O)NCc1ccc(Cl)cc1Cl)=C2	9	-3	1	-0.3	-3	9
Cc1onc(-c2c(F)cccc2Cl)c1C(=O)Nc1cccc(S(=O)(=O)N2CCOCC2)c1	·	32	-2	0.5	6	-7
COC(=O)c1ccccc1NC(=O)CSc1n[nH]c(-c2cccnc2)n1	13	2	-5	1.8	2	9
O=C(O)c1ccc(N=C2SCC(=O)N2Cc2ccccc2)cc1	2	26	9	0.1	19	9

High-throughput results (PubChem BioAssay)
